Screening results deposited in PubChem by National Center for Advancing Translational Sciences (NCATS).
TRPML1 blocker: blocks the human TRPML1 channel; Q9GZU1; TRPML1-inducible cells, Ca2+ dye fluorescence, FDSS; hits give low values; inhibition of EC80 agonist-evoked calcium signal; activity change, negative = inhibition, % (no concentration beside the values); 0.02% of 390,000 active; AID 624415; in the data active means activity change below about -50%; inconclusive means about -30% to -50%; inactive means above about -30%;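 further: stimulus is agonist 54-4 at its EC80 concentration; on the % scale 0 is the no-effect control and ±100 the full control effect; compound concentration not given in the record; the text of the record puts the active cut at -80%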
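Tet-induced TRPML1-DL cells loaded with Ca8 no-wash calcium dye were read kinetically on FDSS. Compound addition was followed by EC80 agonist 54-4 (4 uM final); inhibition was read over 110 s.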
ClpP mod: qHTS Assay for Activators of ClpP. purified B. subtilis ClpP, FRET peptide cleavage, 20 min. 1.9% of 340,000 active. ATP-dependent Clp protease proteolytic subunit (Bacillus subtilis (strain 168)), P80244. Potency, µM (series often up to 57.5 µM), for inactives: at the highest dose activity change, negative = active. AID 651965, 2013; active = well fitted falling curve with a large enough effect; inconclusive = small, poorly fitted or top-dose-only effect; inactive = no such curve, though single readings can be large or run the other way; further: potency means the concentration at half of the fitted maximal effect; the source files actives as falling curves though it sought activators and does not explain the sign; nearly all actives have a fitted effect of over 65% in size; many hits overshoot -100%
Target sequence (P80244 whole entry, looked up): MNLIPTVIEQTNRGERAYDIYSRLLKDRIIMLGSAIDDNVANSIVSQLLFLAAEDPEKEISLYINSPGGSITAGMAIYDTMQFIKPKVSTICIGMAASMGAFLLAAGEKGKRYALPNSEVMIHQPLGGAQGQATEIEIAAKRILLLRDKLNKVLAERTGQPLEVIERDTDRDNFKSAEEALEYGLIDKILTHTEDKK
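FRET quenching reversal measured ClpP activation: 10 microg/mL B. subtilis ClpP at pH 8 with the FRET-FV decapeptide, read at 430 nm after 320 nm excitation. The 20-min minus 0-min signal was scaled between DMSO/no-enzyme wells and ADEP (5.8 microM final).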
PINK1 modulator: changes PINK1 expression | Potency, µM (top dose mostly 76.6 µM), for the others: at the top dose activation (PINK1 increase), hits mostly activators | AID 624263 | PINK1 immunofluorescence, high-content cytometry, 24 h | 0.2% of 410,000 active; active = well fitted activation curve with a large enough effect; inconclusive = small, poorly fitted or top-dose-only effect; inactive = flat fitted curve, though single readings scatter; cell line not stated here;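 further: potency means the concentration at half of the fitted maximal effect; % of control where 0% means no effect; nearly all actives have a fitted effect of over 65% in size; a mitochondrial uncoupler was the plate control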
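Compound titrations (5 concentrations, 24 h) on a stable cell line; DMSO and CCCP controls. Endpoint: fixed-cell PINK1 immunofluorescence with mitochondrial, cell and nuclear markers, scanned by microplate cytometer.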
TRPML1 ag: activates the human TRPML1 channel; TRPML1-expressing cells, Ca2+ dye fluorescence, FDSS; host cell line not named in the record; reference of the full effect not given here; activation, % (test concentration not listed); 0.12% of 410,000 active; AID 624414; in the data active = activation above about 50%; inconclusive = about 30% to 50%; inactive = below about 30%; further: 0% is about no effect; the text of the record puts the active cut at 80%
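TRPML1-DL cells, Tet-induced overnight (~16 h, 37 degrees C), loaded 45-90 min at room temperature with Ca8 no-wash calcium dye plus quencher. FDSS fluorescence: 10 s baseline, compound pin-transfer, 110 s agonist read, then EC80 54-4 (4uM final) and 110 s antagonist read.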
TRPV1 PAM: potentiators of human vanilloid receptor 1 (TRPV1); TRPV1-expressing cells, Fluo-8 calcium influx, capsaicin EC20 potentiation; host cell line not named in the record; control for the full effect not named in the record; potentiation, % at 8.33 µM; 0.02% of 320,000 active; AID 540277; active means potentiation above 80%; inconclusive means 30% to 80%; inactive means below 30%; further: 0% is about no effect
Target sequence (Q8NER1 whole entry, looked up): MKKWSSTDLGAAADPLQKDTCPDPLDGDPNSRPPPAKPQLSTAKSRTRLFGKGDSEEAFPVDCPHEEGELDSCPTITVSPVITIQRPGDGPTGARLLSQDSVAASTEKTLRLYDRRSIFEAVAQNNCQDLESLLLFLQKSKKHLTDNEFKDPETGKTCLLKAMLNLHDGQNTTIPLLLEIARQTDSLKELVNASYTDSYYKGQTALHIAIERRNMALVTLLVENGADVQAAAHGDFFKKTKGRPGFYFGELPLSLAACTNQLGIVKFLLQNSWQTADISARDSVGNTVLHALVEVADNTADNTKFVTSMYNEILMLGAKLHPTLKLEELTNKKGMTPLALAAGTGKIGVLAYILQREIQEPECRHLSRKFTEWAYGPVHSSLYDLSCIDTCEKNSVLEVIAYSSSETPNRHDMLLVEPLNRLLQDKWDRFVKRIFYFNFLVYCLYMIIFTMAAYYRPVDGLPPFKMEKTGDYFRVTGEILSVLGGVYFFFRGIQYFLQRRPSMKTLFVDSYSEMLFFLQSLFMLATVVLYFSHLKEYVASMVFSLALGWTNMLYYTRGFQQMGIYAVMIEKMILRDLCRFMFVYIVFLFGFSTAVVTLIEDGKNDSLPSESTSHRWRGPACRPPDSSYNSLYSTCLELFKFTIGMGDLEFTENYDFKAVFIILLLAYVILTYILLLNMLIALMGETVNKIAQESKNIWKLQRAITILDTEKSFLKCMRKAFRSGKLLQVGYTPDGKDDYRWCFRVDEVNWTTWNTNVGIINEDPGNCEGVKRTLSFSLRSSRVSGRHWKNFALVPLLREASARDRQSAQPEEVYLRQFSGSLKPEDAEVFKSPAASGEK
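TRPV1-expressing cells were cultured overnight at 35.5C and loaded with Fluo-8 calcium dye for 40 to 90 min at room temperature. After a 10 s baseline, compound was added and calcium influx was read kinetically for 3 min (ex 480/em 520 nm).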
Sfp inh: blocks B. subtilis Sfp PPTase activity. Q9F4F7. Biochemical Sfp PPTase activity, qHTS. Potency, µM, for inactives: max response, negative = inhibition, hits mostly inhibitors. 3.5% of 310,000 active; active means well fitted inhibition curve with a large enough effect; inconclusive means small, poorly fitted or top-dose-only effect, or another doubt; inactive means no such curve, though single readings can be large or run the other way;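 further: the enzyme is Sfp with the accession as filed and its product quenches rhodamine fluorescence; potency means the concentration at half of the fitted maximal effect; 0% = enzyme reaction without inhibitor and -100% = no enzyme wells; top concentration of the series not given in the record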
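After 15 min at room temperature with compound, 15 nM Sfp received 5 uM rhodamine-CoA plus 12.5 uM BHQ-2-ybbR (50 mM Hepes pH 7.6, 10 mM MgCl2). Rate came from the fluorescence difference over 30 min, ex 525/em 598 nm.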
Menin MLL FP FL: inhibitors of human menin-MLL interaction, wild-type MLL peptide; Fluorescence polarization, fluorescein-MLL peptide displacement from menin; FP activity change, % at 61.4 µM; 290,000 tested, under 10 active; AID 1766; inconclusive = falling polarisation curve, or a change in total fluorescence; inactive = total fluorescence flat and polarisation flat or rising; no compound was filed as active; the % refers to the polarisation; negative = inhibition;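 further: % of control where 0% means no effect; inhibitors lower the polarisation; unlabelled MLL peptide was the positive control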
Active calls of the source: *; ? = inconclusive; / = no result given; & = joins results of further samples; [ ] = another dose, or the depositor's remark.

Every second line gives: TRPML1 blocker	ClpP mod	PINK1 modulator	TRPML1 ag	TRPV1 PAM	Sfp inh	Menin MLL FP FL
O=C(NC(=S)Nc1ccccc1Br)C1CCC1
    -1	-2.7%	3.5%	-0.2	6	4%	-1.5
CCN(C(=O)CN1CCCCC1)c1c(N)n(Cc2ccccc2)c(=O)[nH]c1=O
    6	1.4%	-1.7%	1.4	1	/	/
CC(=O)Nc1cc(-c2nc3cc(Cl)ccc3o2)ccc1C
    -9	-11%	5.3%	1.7	/	/	/
CCCn1nnc(NC(=O)/C=C/c2ccco2)n1
    14	/	0.2%	0.1	/	-3%	11
Cc1ccccc1CS(=O)(=O)CCC(=O)NCCN1CCN(c2cccc(Cl)c2)CC1
    -15	-2.8%	3.5%	0.3	4	14%	0.2
COc1ccc(C2=NN(C(=O)CCC(=O)O)C(c3ccc(OC)cc3)C2)cc1 (centres undefined)
    1	/	0.0%	0.1	2	1%	-1.3
Cc1ccc(Cc2cnc(NC(=O)/C(C#N)=C/c3ccc(-c4cccc([N+](=O)[O-])c4)o3)s2)cc1
    -22	0.2%	-1.3%	0.4	29	3%	-2.7
N/C(CN1CCCC1=O)=N\OC(=O)c1ccc(Cl)cc1
    13	4.6%	2.2%	-0.4	-6	19%	-0.9
CCN(CC)CCNC(=O)c1ccc(Sc2ccc(Cl)cc2)c(NC(C)=O)c1
    -29	/	0.6%	-0.2	-1	-10%	-3.7
O=C(CSc1nccn1Cc1ccco1)Nc1cc(C(F)(F)F)ccc1Cl
    57	-1.3%	2.8%	1.5	/	/	/
O=C(Cc1ccc([N+](=O)[O-])cc1)c1c(O)cc(O)cc1O
    1	0.9%	0.9%	0.6	9	13%	-0.1
Cc1ccc(C(=O)ONc2ccc(N=O)cc2)cc1
    21	1.6%	-3.5%	-0.2	-8	13%	2.8
COc1ccc(O)c(/C=N/N=C/c2cccc([N+](=O)[O-])c2)c1
    -2	-0.2%	1.2%	-0.5	4	-3%	5.6
COC(=O)c1ccc(C(=O)OC)c(NC(=S)N2CCN(c3ccccn3)CC2)c1
    29	/	1.9%	-0.1	-10	-1%	-1.0
COc1cccc2c1Oc1ncccc1N(C(=O)CCC(=O)NC(C)C)C2
    0	-0.9%	1.1%	0.9	/	/	/
CCOc1ccc(C(c2nnnn2Cc2ccccc2)N2CCN(C(=O)c3ccco3)CC2)cc1 (centres undefined)
    7	-3.4%	-4.1%	0.6	/	/	/
O=C(CS(=O)(=O)c1cccc2nsnc12)NCc1ccc(Cl)cc1
    7	-5.8%	0.2%	-0.9	/	/	/
CC(C)C[C@H](NC(=O)c1[nH]cnc1C(=O)Nc1ccccc1)C(=O)OC(C)(C)C
    -16	2.3%	-0.5%	2.0	1	29%	-4.8
CCCCNCCS(=O)(=O)NCc1ccccc1OC
    15	-3.8%	0.7%	-0.7	/	/	/
CC1COC2C(O1)N(S(C)(=O)=O)CCN2S(C)(=O)=O (centres undefined)
    -4	0.6%	4.4%[38.3 µM]	-0.1	15	5%	2.6
O=C(c1ccccc1)c1ccc(N2CCN(C(=O)c3cccc(F)c3F)CC2)c(F)c1
    -1	-7.2%	1.4%	0.8	0	-1%	/
Cn1c2ccccc2c2ncn(Cc3ccco3)c(=O)c21
    -8	32µM*	4.7%[38.3 µM]	-0.3	1	-2%	0.5
COc1ccccc1N1CCN(C2CC(=O)N(c3cccc(Br)c3)C2=O)CC1 (centres undefined)
    -20	/	0.5%	-0.5	-12	-12%	-1.4
Cc1cc(C)c(C)c(OCCNCc2ccccc2)c1
    -9	1.8%	?	1.0	7	-27%	-1.2
COc1ccc(CNc2nc3ccccc3n2Cc2ccc(C)cc2)cc1OC
    -5	-1.2%	1.0%	-1.0	9	11%	-2.7
COc1ccc2[nH]cc(CCNC(=O)C3CCCO3)c2c1 (centres undefined)
    0	-28%	-1.9%	1.8	4	11%	4.8
CCOc1ccc(C2(C)CC(=O)N(C)C2=O)cc1 (centres undefined)
    /	-0.3%	1.0%	/	3	11%	-1.3
O=C(NC(=S)Nc1ccc2[nH]c(=O)[nH]c2c1)c1ccccc1[N+](=O)[O-]
    -17	-0.7%	-0.7%	0.7	0	-2%	/
COCCCNc1nc2c(-c3cccc(C(F)(F)F)c3)nnn2c2ccccc12
    -1	-13%	-1.8%	-0.4	-1	18%	1.7
Oc1ccc(/C=N/N2CCN(c3ccccn3)CC2)cc1
    -2	2.2%	2.7%	-0.6	0	9%	3.9

Next section (2 carried over from the part before).
Every second line gives: TRPML1 blocker	ClpP mod	PINK1 modulator	TRPML1 ag	TRPV1 PAM	Sfp inh	Menin MLL FP FL
COCCCNc1nc2c(-c3cccc(C(F)(F)F)c3)nnn2c2ccccc12
    -1	-13%	-1.8%	-0.4	-1	18%	1.7
Oc1ccc(/C=N/N2CCN(c3ccccn3)CC2)cc1
    -2	2.2%	2.7%	-0.6	0	9%	3.9
CCc1ccc(-c2nn(CC(=O)NCc3ccccc3)c3c2cnc2ccc(C)cc23)cc1
    27	-4.7%	1.4%	0.0	/	/	/
O=C(Nc1ccc(S(=O)(=O)NC2CCCCC2)cc1)c1ccc(Br)o1
    -18	-1.3%	-3.4%[38.3 µM]	1.3	0	7%	-0.5
O=C(C1CC1)N1CCc2cc(S(=O)(=O)NCCCN3CCCCC3)ccc21
    17	/	2.4%	-0.6	8	10%	/
CN(C)C(=O)CSc1nnc2sc3ccccc3n12
    24	3.5%	1.4%	5.8	/	-2%	-0.3
Cc1nn(-c2cc(N3CCOCC3)ccc2N)c(=O)c2ccccc12
    -9	2.7%	-3.0%	1.7	1	-2%	2.5
COC(=O)c1ccc(Cn2cnc3c(cnn3-c3ccc(Cl)cc3)c2=O)o1
    -22	-2.7%	1.1%	1.4	-4	-3%	1.5
COc1ccccc1C(O)(C(=O)NN(C)c1ccccc1)c1ccccc1OC
    20	0.3%	-0.1%	-0.2	-20	12%	4.3
Oc1ccc(C[C@H]2CNCCN2CCc2cc(C(F)(F)F)cc(C(F)(F)F)c2)cc1
    5	1.0%	-0.7%	0.2	-8	/	/
COc1ccc(N2CC(C(=O)Nc3cc(C)on3)CC2=O)cc1 (centres undefined)
    -1	0.0%	-0.5%[38.3 µM]	0.0	-6	10%	3.2
CCN(Cc1nc2cc(Cl)ccc2c(=O)[nH]1)C(=O)c1nn(C)c(=O)c2ccccc12
    0	0.8%	2.7%	1.1	17	/	/
CCN(CC)CC#CC(O)(c1ccccc1)c1ccccc1
    9	/	1.3%	0.6	-1	23%	-0.1
CC(C)N(Cc1ccccc1)C(=O)COC(=O)c1ccc(O)cc1
    8	-0.7%	0.5%	-0.3	-11	/	/
COc1ccc(S(=O)(=O)c2cnc3ccc(OC)cc3c2N2CCC3(CC2)OCCO3)cc1
    24	-4.7%	1.5%	-0.6	-22	-5%	3.8
Cc1ccccc1NC(=O)C(C)OC(=O)CNS(=O)(=O)c1ccc(C#N)cc1 (centres undefined)
    4	-1.8%	-1.7%	0.1	0	/	/
CCS(=O)(=O)/N=C(\N)c1ccccc1
    20	-0.7%	/	0.1	4	14%	0.3
Cc1ccc(NC(=O)CN(C)C(=O)c2ccc(Cl)c([N+](=O)[O-])c2)cc1
    6	-0.6%	0.4%	-0.4	0	8%	-3.2
C=CCn1c(SCC(=O)Nc2ccc(C(=O)OCC)cc2)nnc1-c1cccs1
    0	103%	5.8%	0.0	3	13%	4.4
CC(=O)Nc1cccc(-c2ccnc3c2CC(C(=O)NCc2cccc(Cl)c2)O3)c1 (centres undefined)
    /	-19%	12%	-0.5	/	/	/
CCN1CCN(C(=O)CS(=O)(=O)Cc2nc(-c3cccc(OC)c3)oc2C)CC1
    -13	-12%	-1.1%	-0.3	4	3%	-1.6
C/C(N)=C(/C#N)C(=O)CSc1nnc(Nc2cccc(C)c2C)s1
    -11&3	-1.8%	2.1%	-0.8&-0.6	1	15%	4.0
O=C(N[C@@H](Cc1ccc(Br)cc1)C(=O)O)OCC1c2ccccc2-c2ccccc21
    -3	0.1%	0.7%	-0.3	27	9%	-1.0
O=C(NCc1cccnc1)C(=O)Nc1nc(C23CC4CC(CC(C4)C2)C3)cs1
    15	/	1.9%	0.7	-13	3%	-0.3
CCN(CC(=O)Nc1ccccc1OC)CC(=O)Nc1sccc1C#N
    4	-0.6%	-0.1%	-0.3	?	-1%	-0.6
CCN(CC)S(=O)(=O)c1ccc(C(=O)N=c2sc3cccc(OC)c3n2C)cc1
    4	-3.8%	1.0%	0.0	/	/	/
CCOC(=O)c1cc(S(=O)(=O)N2CCN(c3cccc(C)c3)C(C)C2)[nH]n1 (centres undefined)
    10	2.0%	1.4%	1.3	/	/	/
N#CCCn1cc(C(=O)O)c(-c2ccc3ccccc3c2)n1
    4	-7.9%	-0.4%	0.5	6	31%[activator]	-2.5
CC1C(c2ccccc2)=NNc2nc3c(c(=O)n(C)c(=O)n3C)n21 (centres undefined)
    -10	-22%	0.4%	4.0	-11	4%	?
COCC1CCCN(C(=O)c2ccc(OC3CCN(Cc4ccccn4)CC3)cc2)C1 (centres undefined)
    ?	/	1.6%	-0.2	16	-22%	1.2
CN1C(=O)C(O)(CC(=O)c2cccs2)c2ccccc21 (centres undefined)
    -5	-0.5%	-2.4%	1.2	7	18%	-3.3
OC1CCCN(c2c3c(nc4cc(-c5cccc(F)c5)nn24)CCCC3)C1 (centres undefined)
    1	/	-1.0%	2.1	-2	-5%	7.2

3 compounds from above, showing only TRPV1 PAM, PINK1 modulator and Sfp inh.
| Compound | TRPV1 PAM | PINK1 modulator | Sfp inh |
| --- | --- | --- | --- |
| CCc1ccc(-c2nn(CC(=O)NCc3ccccc3)c3c2cnc2ccc(C)cc23)cc1 | / | 1.4% | / |
| CCN1CCN(C(=O)CS(=O)(=O)Cc2nc(-c3cccc(OC)c3)oc2C)CC1 | 4 | -1.1% | 3% |
| O=C(Nc1ccc(S(=O)(=O)NC2CCCCC2)cc1)c1ccc(Br)o1 | 0 | -3.4%[38.3 µM] | 7% |

An unsorted share of the library; about 4.4% have a hit in one of these screens.
